# eIF4H FP inh: human eIF4H binding inhibitors, primary screen, translation initiation inhibitor project, biochemical, uHTS, fluorescence polarization; inhibition, % at 35 µM; Eukaryotic translation initiation factor 4H (Homo sapiens), Q15056; AID 2012, 2009; eIF4H fluorescence polarization binding assay; actives 0.94% (n = 290,000);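 active = 50% or more with normal probe brightness, or confirmed in later tests; inconclusive = above 50% with abnormal brightness, or retests that disagree; inactive = below 50% or failed in later tests; about a fifth of its hits are not listed in these tables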;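 note: calls also rest on retests at 20 µM and on dose response follow-up; 0% = protein and probe with vehicle and 100% = probe without protein; strong numbers were not always called active; many hits fall short of the cut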
# Rce1 inhib: yeast Rce1p protease inhibitors, primary screen, biochemical, fluorescence, cell-free homogeneous | actives 0.27% (n = 290,000) | CAAX prenyl protease 2 (Saccharomyces cerevisiae (strain ATCC 204508 / S288c)), Q03530 | yeast membranes, quenched prenylated peptide cleavage fluorescence | calls only;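 active = fall in fluorescence gain of 50% or more versus controls, with final raw signal at or below 3038400; inconclusive = same 50% fall but final raw signal above 3038400; inactive = fall in fluorescence gain under 50%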;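 note: plate controls were neutral control wells for no effect and wells lacking membranes for full effect; tested at 10 µM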
# Target sequence (Q03530 whole entry, looked up): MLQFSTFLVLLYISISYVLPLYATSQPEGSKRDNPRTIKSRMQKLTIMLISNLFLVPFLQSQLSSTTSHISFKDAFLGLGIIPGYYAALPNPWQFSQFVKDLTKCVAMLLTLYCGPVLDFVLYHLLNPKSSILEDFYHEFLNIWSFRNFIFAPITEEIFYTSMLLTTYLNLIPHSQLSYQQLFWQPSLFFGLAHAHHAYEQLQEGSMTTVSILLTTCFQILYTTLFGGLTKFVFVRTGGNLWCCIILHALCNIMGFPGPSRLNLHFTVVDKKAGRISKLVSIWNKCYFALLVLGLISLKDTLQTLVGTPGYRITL
# UUG fidelity: modulators of yeast start codon fidelity, primary screen, whole organism, S. cerevisiae, single point, plate reader; activity score, % at 18.7 µM; actives 0.13% (n = 350,000); S. cerevisiae UUG-firefly luciferase reporter, luminescence/redox ratio;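 active = replicate mean at a twofold rise or more, about +100% in these data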;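 note: firefly luciferase made from a UUG start codon reports start codon fidelity; reporter light over untreated wells divided by growth signal over untreated wells; some hits fall short of that in this replicate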
# MT1-MMP act inh: blockers of MT1-MMP proenzyme processing, primary screen, HT1080 RFP-PRO-GFP cells, GFP/RFP fluorescence; Matrix metalloproteinase-14 (Homo sapiens), P50281; GFP/RFP ratio fluorescence, overnight; percent of plate control window, DMSO zero; GFP/RFP ratio change, % at 20 µM; actives 0.061% (n = 360,000); AID 651647, 2012;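 active = GFP/RFP ratio change of at least 30% with cell ATP level not reduced by more than half and red fluorescence within 50% of control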; note: strong numbers were not always called active
#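 Assay system: HT1080 cells carrying an RFP-PRO-GFP reporter | Dosing: Single dose of 20 µM compound, 1% DMSO final | Incubation: Cells overnight before dosing, compound overnight, 37 °C, 5% CO2 | Evaluation: GFP/RFP fluorescence ratio | Control set: DMSO and RFP-L50D-GFP cell wells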
# Env fusion inh: inhibitors of HIV-1 Env-driven cell-cell fusion, primary screen, HeLa-JRFL effector, CEM21 target cells, luciferase; inhibition, % at 12.3 µM; actives 1.1% (n = 360,000);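 active = mean replicate inhibition score of at least 50 and every replicate individually at or above 50; inconclusive = only one of the two criteria met; inactive = mean below 50 and not all replicates reaching 50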;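 note: 0% = plate neutral controls and 100% = maraviroc near 300 nM; one replicate is shown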
# PABP polyA inh: PABP poly(A) RNA binding inhibitors, primary screen, biochemical, fluorescence polarization, uHTS; actives 1% (n = 290,000); AID 2014, 2009; Polyadenylate-binding protein 1 (Homo sapiens), P11940; inhibition, % at 35 µM;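 active = 50% or more with normal probe brightness, or confirmed in later tests; inconclusive = above 50% with abnormal brightness, or retests that disagree; inactive = below 50% or failed in later tests; about a fifth of its hits are not listed in these tables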;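 note: calls also rest on retests at 20 µM and on dose response follow-up; controls were probe without protein and protein plus probe with vehicle; some compounds called inactive have numbers as strong as hits; many hits fall short of the cut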
# CSC inhib: cancer stem cell viability inhibitors, primary screen, luminescence; cancer stem cell-like cells viability; inhibition, % at 7.5 µM; actives 1.1% (n = 300,000);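 active = mean at 75% or more and at least half the replicates too; inconclusive = mean and replicates disagree; tested in HMLE shEcad cells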;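 note: 0% = median of negative and 100% = median of positive control wells; the first replicate is given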
# eIF4H FP inh retest: recorded beside eIF4H FP inh, whose call it bears; inhibition, %; compound at 20 µM; confirmation average;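 mean of two retest wells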
# PABP polyA inh retest: further read-out of PABP polyA inh, marked with its call; inhibition, %; compound at 20 µM; confirmation repeats;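 mean of two retest wells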
# MT1-MMP act inh RFP: second read-out of MT1-MMP act inh, no call of its own (marks repeat the call); RFP signal change, %; measured here: RFP expression control read;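 0 = vehicle wells; hits needed this value within 50% of zero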
# The depositor's hits bear a star; i = inactive; u = inconclusive; x = not tested or not shown; & = joins results of further samples; [ ] = remark or other dose. An excerpt, so the mix of outcomes need not match the whole.
SMILES,eIF4H FP inh,Rce1 inhib,UUG fidelity,MT1-MMP act inh,MT1-MMP act inh RFP,Env fusion inh,PABP polyA inh,CSC inhib,others
COc1ccc(CCC(=O)Nc2nc3ccccc3[nH]2)cc1OC,2,i,x,-5,3,x,8,-12,
CCn1c(CCc2ccccc2)nnc1SCC(N)=O,-2,i,-14,-1,3,-95,-18,-10,
Cc1cc(C)c(C)c(S(=O)(=O)N2CCN(C(=O)c3cc(S(=O)(=O)N4CCOCC4)ccc3F)CC2)c1C,x,x,-9,1,-8,x,x,-3,
c1ccn2c(c1)nc1c2nc2ccccn21,10,u,-19,2,-25,-111,18,x,
COc1ccc(NS(=O)(=O)c2cc(NC(=O)c3ccc(C)s3)ccc2N2CCOCC2)cc1,0,i,x,1,-1,-13,0,14,
CCCc1[nH]nc2c1C(c1ccccc1OC)C(C#N)=C(N)O2 (stereo unspecified),3,i,-11,-5,-5,-73,5,-1,
CCOC(=O)c1c(CC(C)C)csc1NC(=O)CCl,-4,i,-7,-9,-4,x,13,x,
Cc1cccc(C(=O)N2N=C(c3ccc(NS(C)(=O)=O)cc3)CC2c2cccs2)c1 (stereo unspecified),-4,i,-13,0,-1,2,4,20,
Cc1nc2nc[nH]n2c(=O)c1NS(C)(=O)=O,-10,i,-22,-3,-2,-29,-8,-7,
COCCNC(=O)C1CCC(CNS(=O)(=O)c2c(C)cc(C)cc2C)CC1 (stereo unspecified),3,i,6,-2,3,1,10,-13,
O=C(Nc1cccnc1)c1ccc(-c2ccccc2)cc1,-11,i,x,2,-3,-79,2,16,
CC1(C2CC2)NC(=O)N(CC(=O)Nc2ccc(Cl)c([N+](=O)[O-])c2)C1=O (stereo unspecified),x,x,-5,4,2,-3,x,-6,
O=C1OCC2=C1C(c1ccccc1)CC(=O)N2c1cccc(F)c1 (stereo unspecified),4.2*,i,x,-5,-1,3,68*,x,eIF4H FP inh retest=97*;PABP polyA inh retest=66*
CCOc1ccc(S(=O)(=O)N2CCN(C(=O)c3ccc(C)c(S(=O)(=O)N4CCOCC4)c3)CC2)cc1,x,x,-5,1,-15,-7,x,8,
Cc1noc(C)c1C(=O)N1CCC1(C)C(=O)NS(=O)(=O)c1cccs1 (stereo unspecified),x,x,-4,1,8,-4,x,x,
CCC(=O)N1CCN(c2ccc(Cl)cc2NC(=O)c2cccc([N+](=O)[O-])c2)CC1,2,i,-17,-4,-4,-5,2,-3,
CC(C)n1c(NCc2cccs2)nc2ccccc21,7,i,-31,-1,-3,7,-6,-4,
COc1ccc(/C=N/NC(=O)c2ccc(O)cc2)cc1CN1CCCc2ccccc21,2,i,-1,2,7,x,8,-1,
COc1ccc(F)c(-c2nc(CN3CCC(c4ccccc4)CC3)c(C)o2)c1,2,i,x,-6,-1,1,-4,-4,
O=C1c2ccccc2C(Nc2ccccc2)N1c1cccnc1 (stereo unspecified),-4,i,1,3,2,28,-4,x,
Cc1cc(C(=O)N2CCCC(N3CCN(c4cccc(Cl)c4)CC3)C2)nc(C)n1 (stereo unspecified),4,i,-1,-1,2,8,5,10,
COc1ccc(Br)c(C(=O)Nn2c(C)nc3ccccc3c2=O)c1,-10,i,-10,7,1,-18,3,-13,
O=C(Nc1nc(-c2cccs2)cs1)c1cccc(S(=O)(=O)N2CCCCCC2)c1,-10,i,3,-30,-20,-14,3,25,
COc1ccccc1C=NNc1nc(C)cc(=O)[nH]1,x,x,-17,-1,1,2,x,x,
COc1ccccc1NC(=O)COc1cccnc1[N+](=O)[O-],x,x,-11,0,1,x,x,-12,

# Going on with the list.
SMILES,eIF4H FP inh,Rce1 inhib,UUG fidelity,MT1-MMP act inh,MT1-MMP act inh RFP,Env fusion inh,PABP polyA inh,CSC inhib,others
O=C(NC12CC3CC(CC(C3)C1)C2)c1cncc(Br)c1,4,i,-16,-8,-9,36,10,-5,
COc1ccc(N2CCN(C(=O)c3ccc4nc(N5CCCCC5)sc4c3)CC2)cc1,-10,i,-14,-3,-1,-6,2,48,
COc1ccc(N2CCN(c3nc4ccccn4c(=O)c3C=O)CC2)cc1,u,i,x,-1,0,1,7,-1,
O=S(=O)(c1ccc(Cl)c(NC(=S)N/N=C/c2c(F)cccc2F)c1)N1CCOCC1,-10,i,x,-7,-17,23,-1,8,
Cc1cc(OCC(=O)NCc2ccncc2)ccc1Cl,-2,i,1,4,6,4,13,6,
CCCn1cnc2c(cnn2-c2ccc(F)cc2)c1=O,-11,i,-13,-12,-8,x,-6,-9,
COCCCN1CC23C=CC(O2)C(C(=O)O)C3C1=O (stereo unspecified),1,i,-7,1,3,11,8,-18,
CC1CN(c2nc(-c3ccc(Br)cc3)nnc2-c2ccccc2)CC(C)N1 (stereo unspecified),-6,i,-8,-8,-7,-25,0,36,
O=C(O)c1ccc(N2C(=O)/C(=C\c3ccccc3)N=C2c2ccccc2)cc1,0,i,1,1,-5,-3,-3,-5,
NNC(=O)c1cncc(Br)c1,-5,i,-22,1,3,-7,7,9,
CC(OC(=O)c1ccc2ccccc2c1)C(=O)N(C)Cc1ccccc1 (stereo unspecified),x,x,-5,7,0,x,x,7,
Cc1ccccc1C(=O)Nc1ccc(O)c2c(=O)cc(-c3ccccc3Cl)oc12,-7,i,-20,-5,-8,-16,3,6,
CC(=O)OC1C2CCC1C([N+]1(C)CCCCC1)CC2 (stereo unspecified),2,i,x,-4,3,6,28,-15,
COc1ccc(S(=O)(=O)Cc2ccc(C(=O)NC3CCCCC3)o2)cc1,-6,i,-5,2,2,2,14,3,
CN(C)c1ccc(/C=N\NC(=S)SCN2C(=O)C3CCC(C)(C2=O)C3(C)C)cc1 (stereo unspecified),10,x,1,-5,-8,x,12,x,
CCOc1ccccc1C(=O)N(C)CC(=O)Nc1ccc(OC)cc1,-4,i,-22,-1,2,22,-3,6,
Cc1ccc(NC2=CC(=O)CCC2)cc1C,-2,i,-16,-8,7,-15,-4,17,
Cc1oc2ccc(OC(C(=O)O)c3ccccc3)cc2c1C(=O)O (stereo unspecified),2,i,-9,0,-1,1,13,-11,
COc1ccc2c(c1)CCc1c(C(=O)N(C)c3ccccc3)noc1-2,-4,i,-6,4,-2,-20,u,-11,
CCCCOC(=O)CCc1c(C)n[nH]c1C,-3,i,-16,-3,-4,-24,2,-3,
Cc1ccc(NC(=O)CN2C(=O)/C(=C3\SC(=S)N(C4CCS(=O)(=O)C4)C3=O)c3ccccc32)cc1 (stereo unspecified),-4,x,-15,6,3,x,5,x,
Cc1nnc(C)n1/N=C/c1ccc(C(C)C)cc1,-10,i,-20,2,6,x,-2,-10,
COc1ccc(CCNC(=O)c2ccc(CS(=O)(=O)c3ccc(Br)cc3)o2)cc1OC,16,i,x,-1,-15,35,3,2,
COc1ccccc1NC(=O)CC1C(=O)Nc2c1c(=O)n(C)c(=O)n2C (stereo unspecified),-14,i,-14,4,2,x,9,-3,
CCOC(=O)c1ccccc1NC(=O)c1cc2ccccc2o1,-4,i,-17,3,-5,-18,7,13,

# More entries follow:
SMILES,eIF4H FP inh,Rce1 inhib,UUG fidelity,MT1-MMP act inh,MT1-MMP act inh RFP,Env fusion inh,PABP polyA inh,CSC inhib,others
CCOc1ccc(S(=O)(=O)NCCC(=O)N2CCN(Cc3ccccc3)CC2)cc1,x,i,-16,-2,-4,-40,x,3,
Cc1ccc(C2(C)NC(=O)N(CC(=O)c3ccc(Cl)s3)C2=O)cc1 (stereo unspecified),13,i,x,1,0,-66,8,-6,
O=C(NCc1ccccc1)c1noc2c1CCCCC2,2,i,-11,4,5,-2,-1,-7,
COc1ccc(C2N3CC4(C)CN2CC(C)(C3)C4O)cc1 (stereo unspecified),-3,i,-18,0,3,-8,-2,-10,
O=C(COc1ccc(OCc2ccccc2)cc1)NC1CCOC1=O (stereo unspecified),-8,i,-10,2,1,x,-11,6,
Cc1cc(C)c(OCC(=O)OCC(=O)NCc2cccs2)c(C)c1,x,i,-8,5,3,-5,x,-19,
C[C@@H]1CN([C@H](C)CO)C(=O)CCCn2cc(nn2)CO[C@H]1CN(C)S(C)(=O)=O,x,x,-1&14&-5,3,4,-30[16.7 µM],x,x,
Cc1c(C(=O)NCCN2CCOCC2)sc2nc(-c3ccc(F)cc3)cn12,x,i,-14,16,-5,x,x,-6,
CC(C)(C)c1ccc(Cn2c(=N)n(CC(O)c3ccco3)c3ccccc32)cc1 (stereo unspecified),-2,x,x,-28,-20,x,-11,10,
Cc1noc(NS(=O)(=O)c2ccc(N/C=C/C(=O)c3ccc(F)cc3)cc2)c1C,-10,i,-20,1,-1,-32,9,11,
N#CC1CCN(C(=O)c2ccc3c(Cl)c4c(nc3c2)CCCC4)CC1,-9,i,-9,0,1,-2,4,2,
Cc1cccc(N2CCN(C(=O)CCc3nc4ccccc4c(=O)[nH]3)CC2)c1C,x,x,-7,2,-7,29,x,-4,
Cc1ccc(NC(=O)CS(=O)CC(=O)N(c2ccccc2)C(C)C(=O)NC2CCCC2)cc1 (stereo unspecified),5,i,-8,-1,0,x,-2,-17,
COc1ccc(-c2nc(C#N)c(N3CCCCCC3)o2)cc1OC,-9,i,x,9,-8,x,-3,31,
O=C(CSc1nnc(-c2cccc(F)c2)o1)N1CCCC1,4,i,-17,-3,4,-20,1,-13,
Cc1ccc(NC(=O)CN(C)C(=O)CSc2nnc(N)s2)cc1,x,x,-20,-1,0,x,x,-3,
CCCCC(=O)Nc1cccc(NC(=O)c2cccnc2Cl)c1,-12,i,x,2,1,14,4,x,
Cc1onc(-c2ccccc2)c1C(=O)NCC1CCCO1 (stereo unspecified),-11,i,-11,3,1,-28,3,-13,
COCCCN1C(=O)C(=O)/C(=C(/O)c2ccc(OCC(C)C)cc2C)C1c1cccnc1 (stereo unspecified),-5,i,-17,-2,2,x,7,-7,
CC(C)(C)C1(O)CC(C(F)(F)F)=NN1C(=O)Cc1ccc([N+](=O)[O-])cc1 (stereo unspecified),-5,i,x,-3,-4,4,-2,-7,
COc1ccc(-c2noc(CCC(=O)NCCCN3CCC(C)CC3)n2)cc1,6,i,-3,10,6,x,0,8,
COC(=O)C1CCN(Cc2cn(-c3ccccc3)nc2-c2ccc3c(c2)OCO3)CC1,-5,i,x,1,-1,-15,-7,-5,
COc1ccccc1Nc1ncnc2nc[nH]c12,6,i,6,-3,-5,-97,-5,-7,
COC(=O)c1ccc(COc2ccc(C(C)(C)C)cc2)o1,-3,i,-18,4,-1,-10,0,-4,
Cc1ccc2[nH]c3c(c2c1)CCCC3C(N)=O (stereo unspecified),13,i,x,-8,0,-33,-11,12,
CCC(CC)COC(=O)C1=C(C)NC(=O)NC1c1ccc2c(c1)OCO2 (stereo unspecified),1,i,-8,-2,-10,15,3,-9,
